Compound activity deposited in PubChem BioAssay by National Center for Advancing Translational Sciences (NCATS).
Bst PK mod: Pyruvate Kinase; 51,000 tested, 1.2% active; Potency, µM; partly purified Bacillus stearothermophilus pyruvate kinase, luminescence ATP production; ribose 5-phosphate activator present at AC10; in the data active means potency below about 11 µM; inconclusive means mostly about 12 µM to 25 µM; inactive means weaker than that;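 the screen sought inhibitors and activators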;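 further: potency means the concentration at half of the fitted maximal effect; scaled between full activation by ribose 5 phosphate and full inhibition by luteolin; about four in five hits inhibit and the cells do not say which; series up to 57 µM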
YjeE inh: qHTS Assay for Inhibitors of YjeE | purified YjeE, fluorescence polarisation of a bound ADP probe | Potency, µM | AID 605, 2007 | tRNA threonylcarbamoyladenosine biosynthesis protein TsaE (Escherichia coli (strain … | 71,000 tested, 0.05% active; active = well fitted falling curve; inconclusive = weaker or top-dose-only fall, or a rising curve; inactive = flat or poorly fitted curve;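 further: top concentration of the series not given in the record; excess ADP was the control for the full effect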
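Purified YjeE (10 uM) with BODIPY Texas Red-labeled ADP probe (2 uM); compounds pin-transferred, 15 min at room temperature. Binding inhibition read as decreased fluorescence polarization; ADP titration as control.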
Active calls of the source: *; i = inactive; ? = inconclusive; . = no result given.

Bst PK mod | YjeE inh | smiles
. | i | Cn1ncc2c(Cl)ncnc21
. | i | CCCN(CCC)S(=O)(=O)c1ccc(C(=O)N2CCC(=O)c3ccccc32)cc1
. | i | CCc1cccc2c(=O)c(C(=O)NCCN3CCOCC3)c[nH]c12
. | i | CCNc1ncc2nc(-c3ccccc3)c(=O)n(Cc3ccc(F)cc3)c2n1
>57 | i | O=C(c1ccco1)N1CCN(C(=O)C2CCCN(S(=O)(=O)Cc3ccccc3)C2)CC1 (stereo not drawn)
>57 | i | CC1CCCN(c2nc3c(c(=O)n(C)c(=O)n3C)n2CCSc2nc3ccccc3o2)C1 (stereo not drawn)
>57 | i | COc1ccc(NC(=O)c2ccc3c(=O)n(Cc4ccco4)c(=S)[nH]c3c2)c(OC)c1
>57 | i | COC(=O)C(CCCCNC(=O)OCc1ccccc1)NC(=O)CN (stereo not drawn)
. | i | COc1ccc(C(=O)COC(=O)CCN=C2NS(=O)(=O)c3ccccc32)cc1OC
>57 | i | CC(=O)Nc1ccc(S(=O)(=O)N2CCN(S(=O)(=O)N3CCCCCC3)CC2)cc1
. | i | CCCC(=O)N(Cc1cc2cc(C)ccc2[nH]c1=O)c1ccccc1OC
>57 | i | Cc1nc(SCC(=O)N(C)Cc2ccco2)c2c(C)c(C)sc2n1
>57 | i | O=C(CSc1nnc2ccccn12)N1CCc2ccccc2C1
. | i | Nc1ccc(C2CCCc3nonc32)c2nonc12 (stereo not drawn)
>57 | i | CCOC(=O)c1c(NC(=O)Cn2c(C)nc3ccccc32)sc2c1CCC2

Part of the list above, with values under each structure:
Under each structure – Bst PK mod	YjeE inh
- CCCN(CCC)S(=O)(=O)c1ccc(C(=O)N2CCC(=O)c3ccccc32)cc1
    .	i
- O=C(c1ccco1)N1CCN(C(=O)C2CCCN(S(=O)(=O)Cc3ccccc3)C2)CC1 (stereo not drawn)
    >57	i

Carrying on:
Bst PK mod | YjeE inh | smiles
>57 | i | O=C(CSc1nnc(-c2ccc3c(c2)OCCO3)o1)NC1CCCCC1
>57 | i | O=C(Nc1nc(-c2ccc(S(=O)(=O)N3CCCC3)cc2)cs1)C1COc2ccccc2O1 (stereo not drawn)
>57 | i | CCN(CC)C(=O)CN(C)S(=O)(=O)c1cccc2nsnc12
>57 | i | Cc1ccc(-c2ccc(=O)n(CC(=O)Nc3cccc(C(=O)N4CCN(C)CC4)c3)n2)cc1
. | i | CC(C)(C)CC(C)(C)c1ccc(O)c(C[N+](C)(C)[O-])c1
. | i | O=C(c1ccco1)N1CCC2(CCCN(c3ncccn3)C2)CC1
. | i | CC1=NC2(CCCc3c2no[n+]3[O-])N(O)C1(C)C (stereo not drawn)
>57 | i | CCCC1CCC(C(=O)Nn2cnc3ccccc3c2=O)CC1 (stereo not drawn)
i | i | CCCc1cc(=O)n2[nH]c(NCc3ccc(Cl)cc3Cl)nc2n1
>57 | i | CC(C)(C)NC(=O)C(c1ccncc1)N(C(=O)CNC(=O)c1ccco1)c1ccc2c(c1)OCO2 (stereo not drawn)
. | i | CC(=O)Nc1ccccc1-c1nc2ccc(C(=O)N3CCN(c4ccccc4)CC3)cc2[nH]c1=O
>57 | i | CN(C)CCCN1C(=O)C(O)=C(C(=O)c2cccs2)C1c1ccccn1 (stereo not drawn)
? | i | Cc1cccc2nc(=S)n(C(=O)c3ccco3)n12
. | i | Brc1ccc(CSc2ncnc3nc[nH]c23)cc1
. | i | CCN1CCN(c2cc(C)c3cc(NC(=O)c4cnccn4)ccc3n2)CC1

Another view of some results above:
SMILES	Bst PK mod	YjeE inh
CC1=NC2(CCCc3c2no[n+]3[O-])N(O)C1(C)C (stereo not drawn)	.	i
O=C(CSc1nnc(-c2ccc3c(c2)OCCO3)o1)NC1CCCCC1	>57	i
Brc1ccc(CSc2ncnc3nc[nH]c23)cc1	.	i

(more compounds)
Bst PK mod | YjeE inh | smiles
>57 | i | COC(=O)C1CCN(C(=O)COc2ccc(Cl)cc2)CC1
>57 | i | Cc1ccccc1NC(=O)C1CC(=O)N(c2ccccc2F)C1 (stereo not drawn)
>57 | i | Cc1ccc(C)c(CN2C(=O)C(C)Oc3ccc(C)cc32)c1 (stereo not drawn)
>57 | i | O=C(NCc1cccs1)c1noc2c1CCCC2
>57 | i | CCCCN(CCCC)C(=O)CN(C)S(=O)(=O)c1ccc2c(c1)n(C)c(=O)c(=O)n2C
>57 | i | CC(C(=O)NC1CCCC1)N(Cc1ccc2c(c1)OCO2)C(=O)c1snc(C(N)=O)c1N (stereo not drawn)
>57 | i | COCc1c(C(=O)OCc2nc(N)nc(Nc3ccccc3C)n2)oc2ccccc12
. | i | C=CCSc1nnc(-c2ccc(Cl)cc2Cl)o1
>57 | i | O=C(COc1ccccc1F)NC1CC1
. | i | Cc1cc(O)c(-c2cc(O)c(C)cc2O)cc1O
i | i | Cn1cnc2cc(OC(=O)c3ccccc3)ccc21
>57 | i | COc1ccc(CCN(Cc2cc3cc4c(cc3[nH]c2=O)OCO4)C(C)=O)cc1OC
. | i | O=C(O)CSc1nnc(Cn2c(=O)sc3ccccc32)n1-c1cccc(Cl)c1
. | i | COc1ccc(CNc2ncnc3ccc(-c4ccccc4CN(C)C)cc23)c(OC)c1
. | i | Cc1cc(C)n(CC(O)Cn2c3ccccc3c3ccccc32)c(=O)n1 (stereo not drawn)

Further entries follow:
Bst PK mod | YjeE inh | smiles
. | i | CCOC(=O)c1cnn(-c2ccccc2)c1NC(=O)c1ccccc1
>57 | i | O=C(CSc1nnc(-c2ccoc2)o1)N1CCOCC1
. | i | O=C(CNC(=O)c1ccccc1C(=O)O)c1ccccc1
>57 | i | Cc1onc(-c2ccccc2)c1C(=O)n1cccn1
>57 | i | O=C(CCCn1c(=S)[nH]c2cc3c(cc2c1=O)OCO3)N1CCN(c2ccccc2F)CC1
>57 | i | O=C(Cn1cnc2c(nnn2Cc2ccc(F)cc2)c1=O)N1CCCCC1
>11 | . | COc1ccc(/C(O)=C2/C(=O)C(=O)N(CCCN(C)C)C2c2ccccc2)cc1OC (stereo not drawn)
>57 | i | Cc1ccc(CCNC(=O)C2CCC(=O)N2Cc2cccnc2)cc1 (stereo not drawn)
>57 | i | COc1cccc(-c2cc(C(F)(F)F)n3ncc(C(=O)O)c3n2)c1
>57 | i | CCc1cc(C)cc(OCCNC(=O)c2ncn[nH]2)c1
>57 | i | N#Cc1cc2ccccc2nc1SCC(=O)Nc1ccc(S(=O)(=O)N2CCCC2)cc1
>57 | i | O=C1c2oc3ccc(F)cc3c(=O)c2C(c2ccccc2)N1CC1CCCO1 (stereo not drawn)
>57 | i | COc1cc(OC)c(C2C3=C(CCCC3=O)Nc3nc4ccccc4n32)cc1OC (stereo not drawn)
>57 | i | Brc1cc2c(cc1Cn1c(-c3cncs3)nc3ccccc31)OCO2
>57 | i | CCn1c(SCC(=O)NCCc2ccc(OC)c(OC)c2)nc2c1c(=O)n(C)c(=O)n2C

Following part.
Bst PK mod | YjeE inh | smiles
. | i | CCOC(=O)c1[nH]c(C)c(C(=O)NCc2ccc(OC)cc2)c1C
. | i | CCCCOC(=O)CCNc1n[nH]c(=O)[nH]c1=O
. | i | COc1ccccc1CCn1c(=O)c(-c2ccc(Cl)cc2)nc2cncnc21
>57 | i | CCOC(=O)c1sc2ncn(C(C)C(=O)OCC)c(=O)c2c1C (stereo not drawn)
>57 | i | CCn1c(CC(=O)Nc2cccc(OC)c2)nnc1SCC(=O)Nc1nccs1
>57 | i | CC(C)C(=O)Nc1cccc(-c2nc3ccccc3o2)c1
>57 | i | Fc1cnc(N2CCN(c3ccccc3)CC2)nc1N1CCN(c2ccccc2)CC1
. | i | Cc1cc(N2CCC(C(=O)NC3CC3)CC2)nc(-c2ccccc2)n1
>57 | i | O=C(Nc1ccc(F)cc1F)c1noc2c1CCC2
. | i | COc1ccc(-c2nc3cnc(Oc4ccccc4)nc3n(Cc3cccs3)c2=O)cc1
>57 | i | CCCS(=O)(=O)N1CCC(C(=O)NCCc2ccc(OC)c(OC)c2)CC1
>57 | i | CCOC(=O)C1CCN(C(=O)CCc2ccccc2)CC1
>57 | i | CCOC(=O)c1sc2ccc(S(=O)(=O)N3CCCCC3)cc2c1N
>57 | i | CCCCCC(=O)Nc1ccc(N2CCN(CC)CC2)c(Cl)c1
>57 | i | O=C(c1cccc(-n2cnnn2)c1)N1CCOCC1

(list continues)
Bst PK mod | YjeE inh | smiles
>57 | i | COc1ccc(CNC(=O)C(C#N)c2nc3ccccc3nc2N2CCN(C)CC2)cc1 (stereo not drawn)
. | i | O=c1cnc2cnc(N3CCOCC3)nc2n1CCc1ccccc1
. | i | CCC(=O)Nc1nc2ccccc2n1CCN1CCOCC1
. | i | CC(=O)c1ncnn1CC(=O)c1ccc(Cl)cc1Cl
. | i | O=C1NC2(Nc3ccccc31)C(=O)Nc1ccccc12 (stereo not drawn)
>57 | i | O=C(COc1ccccc1)N1CCNC1=O
>57 | i | COc1cccc(C(=O)N(CN2CCCC2=O)c2ccccc2OC)c1
>57 | i | CCCC(CCC)C(=O)Nc1ccncc1
. | i | CC(=O)NCCSC(=O)c1ccc(F)cc1
>57 | i | CCOC(=O)c1ccc(NC(=O)N2CCN(c3ccccn3)CC2)cc1
>57 | i | CCC(=O)N1CCN(c2ccccc2NC(=O)c2cccc(C)c2)CC1
. | i | CC(=O)c1cccc(NC(=O)N2CCCc3ccccc32)c1
. | i | CCOC(=O)C1CCN(C(=O)CN(c2ccc(Cl)c(C(F)(F)F)c2)S(C)(=O)=O)CC1
>57 | i | O=C(NCC(c1cccnc1)N1CCN(c2ccc(F)cc2)CC1)c1cccc(Cl)c1 (stereo not drawn)
. | i | CC#N

Later entries
Bst PK mod | YjeE inh | smiles
. | i | O/N=C1\CCCc2oc3c(c21)CCCC3
. | i | CCN(CC)C(=O)CSc1nc(C)cc(-c2cccs2)c1C#N
>57 | i | O=C(NCCc1ccccc1)c1ccccc1NS(=O)(=O)N1CCCC1
. | i | COc1cccc(-c2nccc(NCc3cccs3)n2)c1
. | i | CCCC[C@@H]1C[C@H]1[C@@H](NP(=O)(c1ccccc1)c1ccccc1)c1ccccc1OC
>57 | i | CCOC(=O)c1cc(CC)sc1N
. | i | Cc1ccc2c(c1)NC(=O)C(CC(=O)N(C)Cc1ccccc1)O2 (stereo not drawn)
. | i | Cc1ccc(S(=O)(=O)N2CCN(C(=O)c3ccc(OCc4c(C)noc4C)cc3)CC2)cc1
>57 | i | COc1ccc(NC(=O)N2CCCC2C(=O)Nc2ccc(C)c(Cl)c2)cc1 (stereo not drawn)
>57 | i | Cc1cc(C)nc(N2CCC(C(=O)Nc3ccc4c(c3)CCC4)CC2)n1
. | i | C=C1C(CCl)(CCl)C2(Cl)C(Cl)C(Cl)C1(Cl)C2(Cl)Cl (stereo not drawn)
>57 | i | O=C(NCCN1CCOCC1)c1cc2ccccc2o1
>57 | i | O=C(NCc1ccccc1)c1cccnc1N1CCOCC1
. | i | c1ccc2c(c1)c1cccc3ccc4cccc2c4c31
. | i | C[C@@H](C(=O)Nc1ccc2ccccc2c1)[C@@H]1C[C@@]1(C)[C@@H](NC(=O)OCc1ccccc1)c1ccccc1

Continued:
Bst PK mod | YjeE inh | smiles
>57 | i | Cc1cc(OCC(=O)NCCCN2CCOCC2)cc(C)c1Cl
>57 | i | COc1ccc(N(CC(=O)Nc2ccc3c(c2)OCCO3)S(C)(=O)=O)c(OC)c1
. | i | COc1ccc(S(=O)(=O)N(CCc2ccccc2)CC(=O)N2CCOCC2)cc1
. | i | CC(NC(=O)Cc1ccccc1)c1nc2ccccc2[nH]1 (stereo not drawn)
. | i | O=CNc1ncn[nH]1
. | i | COC(=O)c1cc(S(=O)(=O)n2nc(C)cc2C)c(Cl)cc1Cl
>57 | i | O=P(O)(CP(=O)(c1ccccc1)c1ccccc1)c1ccccc1
. | i | c1c[nH]c(CN2CCOCC2)n1
>57 | i | COc1ccc2nc(SCC(=O)NC(C)C)[nH]c2c1
>57 | i | COc1cc(NS(=O)(=O)c2ccc(F)cc2)c(OC)cc1NC(=O)C1CC1
. | i | COC(=O)C1=C(C)NC(C)=C(C(=O)OCCSc2ccccc2)[C@@H]1C
. | i | N#Cc1nc(-c2ccc(OCc3ccccc3)cc2)oc1NCc1ccco1
>57 | i | COc1ccc2c(c1)C(C)=CC(C)(C)N2C(=O)CNCc1ccc2c(c1)OCO2
>57 | i | COCc1[nH]nc2c1C(c1ccccc1Cl)C(C#N)=C(N)O2 (stereo not drawn)
. | i | O=C(O)c1cc2ccccc2c(S(=O)(=O)O)c1O

Other results follow:
Bst PK mod | YjeE inh | smiles
. | i | CCCCC/C=C\C[C@H](O)/C=C\c1cccc(C[C@H](O)CCCCO)n1
>57 | i | CCOc1ccccc1OCC(O)CNC (stereo not drawn)
>11 | . | CCCCOC(=O)CSC1=C(C#N)C(c2ccc3c(c2)OCO3)CC(=O)N1 (stereo not drawn)
>57 | i | Cc1cc2ccccc2c(=O)n1CC(=O)NCC(=O)N(C)Cc1ccccc1
>57 | i | CCOc1ccc(S(=O)(=O)N(C)c2ccc(OCC(=O)OCc3c(C)noc3C)cc2)cc1
. | i | CCN(CC)c1ccc(NC(=O)C2CCCN(S(=O)(=O)c3cccnc3)C2)c(C)c1 (stereo not drawn)

Record cards (already shown). Order of values: Bst PK mod | YjeE inh
COCc1c(C(=O)OCc2nc(N)nc(Nc3ccccc3C)n2)oc2ccccc12 is listed as >57 | i
N#Cc1cc2ccccc2nc1SCC(=O)Nc1ccc(S(=O)(=O)N2CCCC2)cc1 is listed as >57 | i
CCOC(=O)c1cnn(-c2ccccc2)c1NC(=O)c1ccccc1 is listed as . | i

These rows are one share of the data; the hit share may differ from the screen's.
